BmaI1 = BmaI1 acyl-homoserine lactone synthase inhibition – biochemical, fluorescence intensity, with counterscreen (AID 720554). BmaI1 enzyme assay, fluorescence intensity; stronger effect = higher value; test concentration not given here; a few actives read low; strong numbers were not always called active. inhibition, %. 0.4% of 12,000 active;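 active means both replicates within 2 robust z-scores of the inhibited control and a quiet counterscreen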;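 further: 0% = uninhibited enzyme and 100% = inhibited control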
BmaI1 counterscreen = recorded beside BmaI1, whose call it bears; inhibition, %; measured here: counterscreen; design of the counterscreen not given here;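 first of two replicates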
* hit, by the source's call. Not all compounds are listed, so the mix of outcomes need not match the whole.

Every second line gives: BmaI1	BmaI1 counterscreen
- C=CC[C@@H]1C=C(C)C[C@H](C)C[C@H](OC)[C@H]2O[C@@](O)(C(=O)C(=O)N3CCCC[C@H]3C(=O)O[C@H](/C(C)=C/[C@@H]3CC[C@@H](O)[C@H](OC)C3)[C@H](C)[C@@H](O)CC1=O)[C@H](C)C[C@@H]2OC
  0	2
- O=C(OCc1cc(=O)n2ccsc2n1)c1ccccc1NCCO
  13	0
- CN(C)CCC=C1c2ccccc2CCc2ccccc21
  2	22
- Brc1c(NC2=NCCN2)ccc2nccnc12
  12	18
- COc1cc(SC)ccc1C(=O)Nc1ccc(S(=O)(=O)N(C)C)cc1
  21	4
- Cc1[nH]c2ccccc2c1C1=CSC2=NS(=O)(=O)CCN12
  15	17
- CCN(CC(=O)Nc1ccccc1OC)Cc1cc(=O)n2cc(Cl)ccc2n1
  13	16
- CNC(=O)NC(=O)C(Sc1nnc(-c2ccc(C)cc2)o1)c1ccccc1 (configuration not stated)
  13	-2
- Cc1nc2ccccc2nc1CSc1nnc(-c2cccc(S(=O)(=O)N3CCOCC3)c2)o1
  14	13
- CC(C)Cn1cnc2c1c(=O)n(Cc1coc(-c3ccccc3)n1)c(=O)n2Cc1ccccc1
  24	7
- CC(C)(C)NC(=O)c1nc(-c2ccccc2)n(-c2ccccc2)n1
  17	9
- CC(OC(=O)c1ccco1)C(=O)Nc1ccccc1-c1ccccc1 (configuration not stated)
  6	6
- CC(NC(=O)C1=NN(C2CCS(=O)(=O)C2)C(=O)CC1)c1ccc(S(N)(=O)=O)cc1 (configuration not stated)
  14	18
- Cc1cccc(N2CCN(C(C)C(=O)N(C)c3ccccc3)CC2)c1C (configuration not stated)
  12	-4
- CC(C)NC(=S)N/N=C/C1CC=CCC1 (configuration not stated)
  -38	-14
- CC(C)c1ccccc1NC(=O)CN1C(=O)CCC1=O
  4	0
- N#Cc1oc2ccccc2c1NC(=O)COC(=O)c1c2c(nc3ccccc13)CCCCC2
  12	11
- O=C(COc1cccc2ccccc12)N1CCN(S(=O)(=O)c2ccc3c(c2)OCCO3)CC1
  -12	2
- N#CCSc1nnc(C2COc3ccccc3O2)o1 (configuration not stated)
  13	1
- CC(Sc1nc2sc3c(c2c(=O)n1C)CCCC3)C(N)=O (configuration not stated)
  14	6

Fetched by structure from the list above:
Every second line gives: BmaI1	BmaI1 counterscreen
- N#CCSc1nnc(C2COc3ccccc3O2)o1 (configuration not stated)
  13	1
- CCN(CC(=O)Nc1ccccc1OC)Cc1cc(=O)n2cc(Cl)ccc2n1
  13	16

(further entries)
Every second line gives: BmaI1	BmaI1 counterscreen
- CC(=O)Nc1ccc(SCC(=O)Nc2cccc3nsnc23)cc1
  18	12
- CCSc1nnc(NC(=O)c2oc3ccccc3c2COC)s1
  -8	-13
- O=C(OCC(=O)c1c[nH]c2ccccc12)C1=COCCO1
  10	12
- O=C(CN1CCSc2ccccc21)NC1CC1
  14	54
- O=C(Cn1c(-c2ccccc2)cc2ccccc21)NC1=NCCS1
  14	6
- CCOC(=O)c1oc2ccc(Br)cc2c1CSc1nc2ccccc2c(=O)[nH]1
  7	2
- CCCn1c(C(O)(c2c(C)nn(CCO)c2N)C(F)(F)F)nc2ccccc21 (configuration not stated)
  5	8
- CC(C)Oc1ccc(C(=O)NCC(=O)N2CCN(S(=O)(=O)/C=C/c3ccccc3)CC2)cc1
  10	7
- O=C(CSc1ccccn1)N1CCCCC1
  3	6
- O=C(NC1CCSc2ccccc21)C1=CC=CN2CCS(=O)(=O)N=C12 (configuration not stated)
  2	-2
- Cc1c(-c2ccccc2)sc(N)c1C(=O)N1CCCCC1
  105	40
- CNC(=S)NC(C)C1CC2CCC1C2 (configuration not stated)
  13	13
- CC(C(=O)NC1=NCCS1)N1C(=O)c2ccccc2C1=O (configuration not stated)
  4	10
- COc1ccccc1C(=O)COC(=O)C1CC(=O)N(CCc2ccccc2)C1 (configuration not stated)
  23	8
- CCc1noc(C)c1C(=O)NC(c1ccccc1)c1ccc(Cl)cc1 (configuration not stated)
  12	0
- CC(C)N(C(C)C)S(=O)(=O)c1ccc(Oc2ccc3c4c(c(=O)oc3c2)CCC4)nc1
  -1	9
- CCN(CC(=O)Nc1ccccc1OC)CC(=O)Nc1cccc2nsnc12
  6	3
- c1cc(CNC2CCCCCC2)cs1
  2	4
- COc1cc(C(=O)COC(=O)Cn2cnc3ccccc3c2=O)ccc1OC(F)F
  -2	1
- CCCCn1c(=O)[nH]c(=O)c2c(C(F)(F)F)cc(-c3ccc(OC)cc3)nc21
  1	3

A draw from above in order of molar mass, largest number first:
Every second line gives: BmaI1	BmaI1 counterscreen
- CC(C)Oc1ccc(C(=O)NCC(=O)N2CCN(S(=O)(=O)/C=C/c3ccccc3)CC2)cc1
  10	7
- CC(Sc1nc2sc3c(c2c(=O)n1C)CCCC3)C(N)=O (configuration not stated)
  14	6
- Cc1[nH]c2ccccc2c1C1=CSC2=NS(=O)(=O)CCN12
  15	17
- O=C(OCC(=O)c1c[nH]c2ccccc12)C1=COCCO1
  10	12
- CC(C)c1ccccc1NC(=O)CN1C(=O)CCC1=O
  4	0
- O=C(CN1CCSc2ccccc21)NC1CC1
  14	54
- O=C(CSc1ccccn1)N1CCCCC1
  3	6

Other records:
Every second line gives: BmaI1	BmaI1 counterscreen
- O=C(COC(=O)c1ccccc1C(F)(F)F)Nc1c(F)cccc1F
  16	19
- Cc1nc2ccccc2c(=O)n1CC(=O)NC(N)=O
  -8	-11
- Cc1cc(C)n2nc(C(=O)N(C)C(c3ccccc3)c3ccccc3)nc2n1
  6	5
- COC(=O)c1c(C)[nH]c(C(=O)COC(=O)C23CC4CC(CC(NC(C)=O)(C4)C2)C3)c1C
  20	14
- COCC(C)n1c(SCc2nnc(-c3ccccc3)o2)nc2ccccc2c1=O (configuration not stated)
  2	-8
- COc1ccc(CC2(C)NC(=O)NC2=O)cc1OC (configuration not stated)
  -1	2
- CC(OC(=O)c1ccccn1)C(=O)N1CCc2ccccc21 (configuration not stated)
  6	3
- O=c1[nH]cnc2cc(F)ccc12
  11	6
- NCCc1ccc(Cl)cc1
  7	4
- N#CCc1ccc(F)cc1
  14	9
- Cc1ccc(CC(=O)OCC(=O)Nc2c(C#N)c(C)c(C)n2Cc2ccco2)cc1C
  10	-2
- NC(=O)c1c(NC(=O)CCN2C(=O)S/C(=C\c3cccs3)C2=O)sc2c1CCC2
  12	6
- CCn1c(SC(=O)NC2CCCCC2)nnc1-c1cccs1
  88	83
- O=C(c1cc2ccccc2o1)N(CC1CCCO1)c1nc2ccccc2s1 (configuration not stated)
  6	-2
- CCc1ccc(NC(=O)COC(=O)CN2C(=O)COc3ccccc32)cc1
  4	9
- COC(=O)/C(=C(/O)CSc1nnc(COc2ccccc2Cl)n1C)c1nc2ccccc2[nH]1
  1	0
- NC(=O)NCc1ccc(C(=O)O)cc1
  33	14
- CCOC(=O)c1sc(N(Cc2ccccc2)C(=O)COC(=O)c2cccn2C)nc1C
  2	3
- Cc1ccc(C)c(N2N=C(C(=O)N3CCN(c4ccccc4F)CC3)CCC2=O)c1
  17	9
- Cc1ccc(C(=O)NCC(C)(C)N2CCOCC2)s1
  2	0

Record cards, from the list above:
Cc1ccc(CC(=O)OCC(=O)Nc2c(C#N)c(C)c(C)n2Cc2ccco2)cc1C is entered as BmaI1: 10; BmaI1 counterscreen: -2
COC(=O)/C(=C(/O)CSc1nnc(COc2ccccc2Cl)n1C)c1nc2ccccc2[nH]1 is entered as BmaI1: 1; BmaI1 counterscreen: 0
O=C(c1cc2ccccc2o1)N(CC1CCCO1)c1nc2ccccc2s1 (configuration not stated) is entered as BmaI1: 6; BmaI1 counterscreen: -2

Following part
Every second line gives: BmaI1	BmaI1 counterscreen
- CC1CCCCC1NC(=O)CSc1nnc(-c2cccs2)n1-c1ccccc1 (configuration not stated)
  16	-1
- CC(C#N)OC(=O)CSc1nnc(-c2ccccc2F)n1-c1ccccc1 (configuration not stated)
  -2	2
- Nc1ccc2cn[nH]c2c1
  31	37
- Nn1c(SCC(=O)NC2CCCC2)nnc1-c1ccc(Cl)cc1Cl
  20	6
- COc1cc2[nH]c(=O)n(/N=C/c3ccc(O)c(Br)c3)c(=O)c2cc1OC
  2	8
- Cc1cc(-n2c(C)cc(C(=O)COC(=O)c3sccc3C)c2C)no1
  8	5
- CN(Cc1ccccc1)C(=O)COC(=O)C1COc2ccccc2O1 (configuration not stated)
  -10	-12
- O=S1(=O)CCn2c(ncnc2=Nc2cccc(C(F)(F)F)c2)N1
  4	2
- Cc1sc2nc(CSc3ncnc4sccc34)[nH]c(=O)c2c1C
  -3	-6
- CN1C(=O)/C(=C\c2ccc(-c3ccc(S(N)(=O)=O)cc3)o2)c2ccccc21
  8	0
- O=C(NNC1=NCCC1)c1cccc(S(=O)(=O)N2CCOCC2)c1
  11	-3
- CCCN1C[C@H](CSC)C[C@@H]2c3cccc4[nH]cc(c34)C[C@H]21
  3	12
- O=c1c2ccccc2nnn1CSc1nnc2ccccn12
  16	10
- COc1ccc(-c2cc(C(=O)OCC(=O)N(C)C)c3ccccc3n2)cc1
  7	0
- CCn1c(-c2cccs2)nn(CN2CCN(S(=O)(=O)c3cccs3)CC2)c1=S
  44	28
- Cc1cc(C)n2nc(C(=O)NC(C)(C)C)nc2n1
  2	2
- CC(=O)Nc1ccccc1OCC(=O)c1cc(C)n(Cc2cccs2)c1C
  11	0
- O=C1CC(Sc2nnc3ccccn23)C(=O)N1CCc1ccccc1 (configuration not stated)
  101	92
- CN(C)C(CNC(=O)c1oc2ccccc2c1CSc1ncn[nH]1)c1ccco1 (configuration not stated)
  -10	-9
- Cn1c(=NC(=O)C2CCN(S(=O)(=O)c3cccs3)CC2)sc2ccccc21
  -8	-8
- Cc1cccc(OCC(=O)OC2CCOC2=O)c1 (configuration not stated)
  4	2
- O=C(c1ccc2c(=O)[nH][nH]c(=O)c2c1)N1CCN(c2cccc(C(F)(F)F)c2)CC1
  26	12
- O=C(COC(=O)c1cccc(C(F)(F)F)c1)NC1CCS(=O)(=O)C1 (configuration not stated)
  -6	-2
- O=C(c1ccc(F)cc1)N1CCCCC(Sc2nnc(-c3ccc4c(c3)OCO4)o2)C1=O (configuration not stated)
  12	2
- Cc1ccccc1Nc1nc(N)nc(COc2ccc3c(C)cc(=O)oc3c2)n1
  12	2
- COc1cc(C#N)ccc1OCC(=O)NC(C)c1ccc2c(c1)OCO2 (configuration not stated)
  9	2
- C=CC1=C(C(=O)O)N2C(=O)[C@@H](NC(=O)C(=NOCC(=O)O)c3csc(N)n3)[C@H]2SC1
  53	7
- O=C(CSc1nncs1)NCc1cccs1
  16	13
- Cc1ccc2c(COC(=O)CNC(=O)c3ccco3)cc(=O)oc2c1C
  8	6
- CCN(CC)S(=O)(=O)c1ccc(N=Nc2c(C)nn(-c3ccccc3)c2N)cc1
  5	0
- CC(Sc1ncnc2c1cnn2-c1ccccc1)C(=O)NC(N)=O (configuration not stated)
  2	6
- CC(Sc1nncs1)C(=O)N1c2ccccc2CC1C (configuration not stated)
  9	7
- Cc1noc(C)c1COC(=O)c1ccc(S(=O)(=O)N(C)C)cc1
  12	16
- CCOc1ccc(S(=O)(=O)NCC(=O)OCN2C(=O)c3ccccc3C2=O)cc1
  12	10
- O=C(CN1CCCc2ccccc21)NCc1ccccc1Cl
  -21	-30
- N#CCCn1cc(/C=C/C(=O)O)c2ccccc21
  4	4
- COc1ccc(C(=O)COC(=O)CSc2nc(C)cc(C)n2)cc1OC
  8	2
- CC(C)CCn1c(=O)c2ccccc2n2c(COC(=O)c3ccc(S(=O)(=O)N(C)C)cc3)nnc12
  24	12
- S=c1nc[nH]c2ccccc12
  -110	-76
- O=C(CCC(=O)c1cccs1)Nc1nnc(C2CC2)s1
  8	8
- CC(C)(C)C(O)(CCc1ccccc1)Cn1cncn1 (configuration not stated)
  5	8
- C=CCNc1nnc(SCC(=O)NC2CCS(=O)(=O)C2)s1 (configuration not stated)
  12	-2
- COc1cc(C(=O)O)ccc1OCc1c(C)noc1C
  11	1
- CC12CCC(=O)N1C(C(=O)N1CCN(c3ccccc3)CC1)CS2 (configuration not stated)
  0	4
- Cc1cc(C)n2c(SCC(=O)N3CCc4ccccc43)nnc2n1
  44	4
- C=CCn1c(SCC(=O)NC(=O)NC)nnc1-c1ccc(Cl)cc1Cl
  -2	-1
- CC1(C)CC2CC(C)(CN2C(=O)COC(=O)c2cncc(Br)c2)C1 (configuration not stated)
  6	4
- Cc1ccc(NC(=O)CN(C)Cn2nc(-c3ccco3)oc2=S)cc1
  6	12
- CN1C(=O)N(Cc2ncc(-c3ccccc3)o2)C(=O)C1(C)C
  7	0
- CCNC(=O)N1C2CCC(C2)C1C(=O)OCC (configuration not stated)
  4	-2

More structures follow:
Every second line gives: BmaI1	BmaI1 counterscreen
- CC(C)n1c(O)c(N=NC(=O)c2cccc(S(=O)(=O)N3CCCC3)c2)c2ccccc21
  11	9
- Cc1ccc(NC(=O)OCc2cccs2)cc1
  16	11
- CN1CCC(N(C)C(=O)c2ccc(S(=O)(=O)NCc3ccco3)cc2)CC1
  5	1
- O=S(=O)(/C=C/c1ccccc1)N1CCN(C(=S)NCC2CCCO2)CC1 (configuration not stated)
  5	5
- Cc1noc(C)c1CSc1nc2sc(C)c(C)c2c(=O)n1C1CCCC1
  12	3
- CCN1C(=O)CS/C1=N\S(=O)(=O)c1ccccc1
  14	8

Compound activity from PubChem BioAssay.
